GIRK2 act: activators of human GIRK2 potassium channels; calls only for hits at 25 µM; G protein-activated inward rectifier potassium channel 2 (Homo sapiens), P48051; 0.05% of 63,000 active; HEK293-GIRK2 thallium flux, Thallos fluorescence;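 active = among the strongest 0.2% of first-round signals and kept after retests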;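 note: first round at about 10 µM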
Target sequence (P48051 whole entry, looked up): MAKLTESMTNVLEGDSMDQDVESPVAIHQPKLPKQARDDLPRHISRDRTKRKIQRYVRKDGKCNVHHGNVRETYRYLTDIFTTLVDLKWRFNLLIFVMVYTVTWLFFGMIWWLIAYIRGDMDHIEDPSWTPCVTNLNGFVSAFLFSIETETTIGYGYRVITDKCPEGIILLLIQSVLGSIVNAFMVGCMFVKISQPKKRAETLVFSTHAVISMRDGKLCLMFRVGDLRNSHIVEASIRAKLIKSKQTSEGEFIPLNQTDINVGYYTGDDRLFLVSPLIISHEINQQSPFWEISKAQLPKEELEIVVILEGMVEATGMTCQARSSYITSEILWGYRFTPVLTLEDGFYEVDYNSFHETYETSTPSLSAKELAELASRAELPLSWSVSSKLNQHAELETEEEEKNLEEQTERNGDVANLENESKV
Calls only. Only part of the results is shown; count on the stated rates, not on these rows.

What do the screens show for `COC(=O)N1CCc2ccc(F)cc2C1C(=O)N1CCN(S(=O)(=O)C2CC2)CC1` (centres undefined)?
GIRK2 act: inactive

Results for Cc1ccc(-c2nc3c(c(=O)n2CC(=O)Nc2c(C)cccc2C)CN(C)CC3)cc1 ?
GIRK2 act: inactive

What do the screens show for `CCOc1ccc(Br)cc1S(=O)(=O)NCCCn1ncccc1=O`?
GIRK2 act: inactive

Results for O=C(NC1CCCC1)C1CCN(c2nc3ccsc3c(=O)n2Cc2ccc(F)cc2)CC1 ?
GIRK2 act: inactive

How did CC1CN(C2CCCCC2)c2nc3c(c(=O)n(CCN4CCCCC4)c(=O)n3C)n2C1 (centres undefined) do in these assays?
GIRK2 act: inactive

What do the screens show for `COc1ccc(C2C(S(=O)(=O)c3ccc(C)cc3)=C(O)C(=O)N2c2ccc(F)cc2)cc1` (centres undefined)?
GIRK2 act: inactive

Results for COC(=O)N1CCc2ccc(F)cc2C1C(=O)N1CCC(O)CC1 (centres undefined) ?
GIRK2 act: inactive

How did COC(=O)c1ccc(C(=O)N(CCc2cccs2)Cc2ccoc2)cc1 do in these assays?
GIRK2 act: inactive

Results for CN1C(=O)Cc2cc(NC(=O)c3cc(-c4ccccc4)n[nH]3)ccc21 ?
GIRK2 act: inactive

How did O=C(Cc1noc2ccccc12)NCC1CCC(c2nc3ccccc3[nH]2)CC1 (centres undefined) do in these assays?
GIRK2 act: inactive

What do the screens show for `CCCCC/C=C\C/C(C)=C\C/C=C\C/C=C\CCCC(=O)N[C@@H](C)CO`?
GIRK2 act: inactive

Results for Cc1cc(CNC(=O)C(=O)NCC(F)(F)F)c(C)o1 ?
GIRK2 act: inactive

What do the screens show for `COC(=O)CS(=O)(=O)C1CCN(C(=O)NCc2ccc(OC)cc2)CC1`?
GIRK2 act: inactive

How did O=C(Nc1ccccc1-c1ccc(=O)[nH]n1)c1cc(Br)ccc1Cl do in these assays?
GIRK2 act: inactive

Results for COc1cccc(N/C=C(/C#N)S(=O)(=O)c2ccc(Cl)cc2)c1 ?
GIRK2 act: inactive

Results for CN(C)CCNc1nc2c(c(=O)n(C)c(=O)n2C)n1CC(O)COc1ccc(Cl)cc1Cl (centres undefined) ?
GIRK2 act: inactive

Results for CCc1cccc(C)c1NC(=O)Cn1nc(-c2ccc(F)cc2)c2sc(N3CCCC3)nc2c1=O ?
GIRK2 act: inactive

What do the screens show for `COc1ccccc1C1(CNC(=O)c2cccc(C(F)(F)F)c2)CCOCC1`?
GIRK2 act: inactive

How did COc1ccc(NC(=O)Cn2nc3ccc(SC4CCCCC4)nn3c2=O)c(OC)c1 do in these assays?
GIRK2 act: inactive

How did O=C(NCc1cccs1)c1ccc(OCc2ccc3ccccc3n2)cc1 do in these assays?
GIRK2 act: inactive

Results for Cc1cccc(-c2noc(-c3cccnc3N3CCC(C(=O)NCc4ccccc4F)CC3)n2)c1 ?
GIRK2 act: inactive

How did COc1ccc(-c2cc(N3CCN(C/C=C/c4ccccc4)CC3)ncn2)cc1 do in these assays?
GIRK2 act: inactive

Results for Cc1cc(C)c2c(N)c(-c3cc(=O)oc4c(C)c(O)ccc34)sc2n1 ?
GIRK2 act: inactive

Results for O=C(O)CC(CC(=O)NCc1ccsc1)c1cccs1 (centres undefined) ?
GIRK2 act: inactive

How did COc1cc2ncc(C(=O)c3ccccc3)c(N3CCC(C(N)=O)CC3)c2cc1OC do in these assays?
GIRK2 act: inactive

Results for Cc1c(Cl)cccc1N1CC(c2nc3ccccc3n2C(C)C)CC1=O (centres undefined) ?
GIRK2 act: inactive

How did CN(C)c1ccc(C(CN)N2CCc3ccccc32)cc1 (centres undefined) do in these assays?
GIRK2 act: inactive

Results for Cc1ccc(-c2ccc(S(=O)(=O)N3CCCCC3C)cc2)cc1 (centres undefined) ?
GIRK2 act: inactive

What do the screens show for `CCCCNC(=O)c1cccc(-n2ccnc2SCC(=O)Nc2ccc3c(c2)OCO3)c1`?
GIRK2 act: inactive

What do the screens show for `COC(=O)C(C)Oc1ccc2c(c1)O/C(=C\C=C\c1ccccc1)C2=O` (centres undefined)?
GIRK2 act: inactive

Results for O=c1cc(-c2nn3c(Cc4ccccc4)nnc3s2)c2ccccc2o1 ?
GIRK2 act: inactive

Results for C#CCOCC1CCCN(C(=O)c2ccccc2SCC)C1 (centres undefined) ?
GIRK2 act: inactive

How did COC(=O)c1sccc1S(=O)(=O)Nc1c(C)cc(C)cc1C do in these assays?
GIRK2 act: inactive

Results for COc1ccccc1OCC#CCNC(=O)c1cccs1 ?
GIRK2 act: inactive

How did COc1ccc(CCNC(=O)c2[nH]c3ccc(C)cc3c2NC(=O)c2cccc(C)c2)cc1OC do in these assays?
GIRK2 act: inactive

Results for COc1ccc(-c2nc(Cn3nnc(C(=O)Nc4ccccc4Cl)c3N)c(C)o2)cc1OC ?
GIRK2 act: inactive

Structures from the list above with two or more sulfur atoms:
Results for O=C(O)CC(CC(=O)NCc1ccsc1)c1cccs1 (centres undefined) ?
GIRK2 act: inactive

How did COC(=O)c1sccc1S(=O)(=O)Nc1c(C)cc(C)cc1C do in these assays?
GIRK2 act: inactive

New compounds follow.
Results for Fc1ccc(-c2c(-c3ccncc3)[nH]c3cccnc23)cc1 ?
GIRK2 act: inactive

How did O=C(Cc1cccs1)N(CC1CCCO1)c1nc2ccc(OC(F)(F)F)cc2s1 (centres undefined) do in these assays?
GIRK2 act: inactive

Results for O=C(CSc1nc2[nH]ncc2c(=O)n1-c1ccccc1)Nc1ccccc1C(F)(F)F ?
GIRK2 act: inactive

How did Cc1csc(-c2nnc(NC(=O)c3c[nH]c4ccccc34)o2)c1 do in these assays?
GIRK2 act: inactive

What do the screens show for `COc1cccc(-n2c(-c3ccccc3)cn3c4c(=O)n(CCN5CCCCC5)c(=O)n(C)c4nc23)c1`?
GIRK2 act: inactive

What do the screens show for `COc1ccccc1NC(=O)Nc1ccc(-n2nnn(C)c2=O)cc1`?
GIRK2 act: inactive

Results for O=C(c1ccncc1)N1CCN(c2nnnn2-c2ccccc2)CC1 ?
GIRK2 act: inactive

What do the screens show for `Cc1cc(C)n(CC(=O)Nc2ccc3c(c2)OCO3)n1`?
GIRK2 act: inactive

Results for O=C(Nc1ccc(C(F)(F)F)cc1)N1CCC(COCc2ccc(F)cc2)CC1 ?
GIRK2 act: inactive

Results for CCCCc1ccc(NCCN2N=C(C)C(C)n3c2nc2c3c(=O)n(C)c(=O)n2C)cc1 (centres undefined) ?
GIRK2 act: inactive

Results for COc1cccc(CNC(=O)Cn2cc(C(=O)N3CCCCC3)c(=O)c3ccc(C)nc32)c1 ?
GIRK2 act: inactive

How did O=C(/C=C/c1cccs1)N1CCN(C(=O)c2cnn3ccccc23)CC1 do in these assays?
GIRK2 act: inactive

Results for O=S(=O)(NCCN1CCN(c2ccc(F)cc2)CC1)c1cccs1 ?
GIRK2 act: inactive

How did O=C(CC(c1ccccc1)c1ccccc1)NCCC(O)c1ccccc1 (centres undefined) do in these assays?
GIRK2 act: inactive

Results for COC(=O)c1ccc2c(=O)n(CC(=O)NCC(C)c3ccccc3)c(=S)[nH]c2c1 (centres undefined) ?
GIRK2 act: inactive

What do the screens show for `Cc1cc(NC(=O)c2ccc(F)c(F)c2)sn1`?
GIRK2 act: inactive

How did Cc1ccc2c(=O)c(C(=O)Nc3ccccc3)cn(CC(=O)Nc3ccc(C)c(C)c3)c2n1 do in these assays?
GIRK2 act: inactive

How did COc1cccc(Oc2c(C)oc3cc(OCC(N)=O)ccc3c2=O)c1 do in these assays?
GIRK2 act: inactive

How did CCCn1cc(-c2nc(-c3ccccc3Cl)no2)c(=O)c2cc(F)ccc21 do in these assays?
GIRK2 act: inactive

Results for COc1ccc2nc(N3CCN(C(=O)NCc4cccs4)CC3)sc2c1 ?
GIRK2 act: inactive

Results for O=S(=O)(c1ccccc1Br)N1CCC2(CC1)OCCS2 ?
GIRK2 act: inactive

Results for CN1CCN(c2ncc(NC(=O)Nc3ccc(F)c(Cl)c3)cn2)CC1 ?
GIRK2 act: inactive

Results for O=C(c1ccoc1)N1CCC(CNS(=O)(=O)C2CC2)CC1 ?
GIRK2 act: inactive

What do the screens show for `Cc1nc(Nc2ccccn2)cc(N2CCN(C(=O)C3CC3)CC2)n1`?
GIRK2 act: inactive

Results for O=C(O)c1cnc(SCc2ccccc2)[nH]c1=O ?
GIRK2 act: inactive

What do the screens show for `Cc1c(Cl)cccc1S(=O)(=O)N1CCC(Cn2ccnc2)CC1`?
GIRK2 act: inactive

How did O=C(c1c(F)cccc1Cl)N1CCN(CC(O)c2ccco2)CC1 (centres undefined) do in these assays?
GIRK2 act: inactive

Results for COc1cccc(COc2coc(C(=O)Nc3cc(OC)c(OC)c(OC)c3)cc2=O)c1 ?
GIRK2 act: inactive

What do the screens show for `N#C/C(=C/Nc1ccc(C(N)=O)cc1)c1nc(-c2cc3cc([N+](=O)[O-])ccc3oc2=O)cs1`?
GIRK2 act: inactive

Results for COC(=O)c1ccc(NC(=O)COc2cc(C)nc(N3CCCC3)n2)cc1 ?
GIRK2 act: inactive

How did NC(=O)CSc1nnc(-c2cccc(S(=O)(=O)N3CCCCCC3)c2)o1 do in these assays?
GIRK2 act: inactive

What do the screens show for `CCOCC(=O)N1CCN(Cc2nnnn2-c2ccc(F)c(F)c2)CC1`?
GIRK2 act: inactive

How did CCc1cc(-c2n[nH]c(C)c2-c2ccc3c(c2)OCCO3)c(O)cc1OCC(=O)NN do in these assays?
GIRK2 act: inactive

How did CCOC(=O)Cc1csc(NC(=O)CN2CC(c3nc(-c4ccccc4OC)no3)C2)n1 do in these assays?
GIRK2 act: inactive

How did CC(C)(C)c1ccc(NC(=O)NNC(=O)c2cccn(Cc3cccc(F)c3)c2=O)cc1 do in these assays?
GIRK2 act: inactive

Results for O=C(O)c1ccc(CNS(=O)(=O)c2c(F)cccc2F)cc1 ?
GIRK2 act: inactive

Filtered by structure, those above with a cyano group.
Results for COc1cccc(N/C=C(/C#N)S(=O)(=O)c2ccc(Cl)cc2)c1 ?
GIRK2 act: inactive

What do the screens show for `N#C/C(=C/Nc1ccc(C(N)=O)cc1)c1nc(-c2cc3cc([N+](=O)[O-])ccc3oc2=O)cs1`?
GIRK2 act: inactive

Going on with the list.
What do the screens show for `COc1ccc2sc(N(CCN3CCOCC3)C(=O)/C=C/c3cccc([N+](=O)[O-])c3)nc2c1`?
GIRK2 act: inactive

Results for CNCC(O)c1ccc(O)c(O)c1 (centres undefined) ?
GIRK2 act: inactive

What do the screens show for `O=C(NCC1CCN(Cc2cccs2)CC1)Nc1ccc2c(c1)OCO2`?
GIRK2 act: inactive

How did COc1cccc(NC(=O)c2cc(-c3ccncc3)nc3ccccc23)c1 do in these assays?
GIRK2 act: inactive

How did O=C(NCCC(O)c1ccc2c(c1)OCO2)c1ccc(Cl)s1 (centres undefined) do in these assays?
GIRK2 act: inactive

How did Cc1ccc(NC(=O)CC2Nc3ccccc3N(CC(=O)Nc3cccc(Cl)c3)C2=O)cc1 (centres undefined) do in these assays?
GIRK2 act: inactive

How did O=C(NCCn1nc(C2CC2)n(-c2ccccc2)c1=O)Nc1cccs1 do in these assays?
GIRK2 act: inactive

What do the screens show for `O=c1c(-c2ccccc2)coc2c3c(ccc12)OCN(CCN1CCOCC1)C3`?
GIRK2 act: inactive

What do the screens show for `O=C(NCCC(O)c1ccc2c(c1)OCO2)c1ccc2c(c1)OCO2` (centres undefined)?
GIRK2 act: inactive

Results for COC(=O)CSc1nccn2nc(-c3ccc(Br)cc3)cc12 ?
GIRK2 act: inactive

What do the screens show for `CCNC(=O)c1nnn(-c2nc3c(s2)CCCC3)c1C`?
GIRK2 act: inactive

What do the screens show for `COc1ccc(NC(=O)Nc2ccc3c(c2)C(=O)Nc2cc(C)ccc2O3)cc1`?
GIRK2 act: inactive

Results for COc1cc(OC)cc(C(=O)N2CCN(Cc3c(C)noc3C)CC2)c1 ?
GIRK2 act: inactive

How did CCOc1nccc2c1nc(-c1nonc1N)n2CC do in these assays?
GIRK2 act: inactive

Results for O=C(Cc1cccc2ccccc12)N1CCC(Oc2ccc(Cl)cn2)CC1 ?
GIRK2 act: inactive

How did COc1ccc(SCC2CCN(C(=O)Cc3ccc(F)cc3)CC2)cc1 do in these assays?
GIRK2 act: inactive

How did Cc1cc(F)ccc1NC(=O)Cn1c(C)nc(-c2ccccn2)cc1=O do in these assays?
GIRK2 act: inactive

What do the screens show for `COc1ccc(-c2noc(-c3c(SC)nn(CC(=O)NCc4ccccc4)c3N)n2)cc1`?
GIRK2 act: inactive

What do the screens show for `COc1cc(C(C)=O)ccc1OCC(=O)NCCn1nc(-n2ccnc2)ccc1=O`?
GIRK2 act: inactive

Results for COc1cccc2cc(C(=O)NCC3(c4cccs4)CC3)oc12 ?
GIRK2 act: inactive

How did O=C(COc1ccccc1F)NCCCS(=O)(=O)N1CCN(c2ncccn2)CC1 do in these assays?
GIRK2 act: inactive

What do the screens show for `COC(=O)Cn1c(=O)c2c(nc3n2CCCN3c2ccc(OC)cc2OC)n(C)c1=O`?
GIRK2 act: inactive

Results for CCOC(=O)c1c(S(=O)(=O)N2CCN(c3ccccc3Cl)CC2)n[nH]c1CC ?
GIRK2 act: inactive

Results for CC(C)(C)c1ccc(S(=O)(=O)NCc2ccc(C(=O)Nc3ccc4c(c3)OCO4)cc2)cc1 ?
GIRK2 act: inactive

Results for Cc1cc(N2CCCCC2)nc(N2CCN(C(=O)c3ccc4ccccc4c3)CC2)n1 ?
GIRK2 act: inactive

How did CC(C)CC(=O)Nc1ccc(-n2cnc(C(=O)NC3CCCCCC3)c2)nc1 do in these assays?
GIRK2 act: inactive

As a short view, some entries already given:
How did Cc1cc(F)ccc1NC(=O)Cn1c(C)nc(-c2ccccn2)cc1=O do in these assays?
GIRK2 act: inactive

What do the screens show for `COc1ccc(-c2noc(-c3c(SC)nn(CC(=O)NCc4ccccc4)c3N)n2)cc1`?
GIRK2 act: inactive

What do the screens show for `COc1cc(C(C)=O)ccc1OCC(=O)NCCn1nc(-n2ccnc2)ccc1=O`?
GIRK2 act: inactive

Results for COc1cccc2cc(C(=O)NCC3(c4cccs4)CC3)oc12 ?
GIRK2 act: inactive

How did O=C(COc1ccccc1F)NCCCS(=O)(=O)N1CCN(c2ncccn2)CC1 do in these assays?
GIRK2 act: inactive

What do the screens show for `COC(=O)Cn1c(=O)c2c(nc3n2CCCN3c2ccc(OC)cc2OC)n(C)c1=O`?
GIRK2 act: inactive

High-throughput results deposited in PubChem BioAssay by Vanderbilt University.
